From PubChem
VDR inhibitor: inhibitors of human vitamin D receptor; P11473; VDR-SRC2-3 peptide fluorescence polarization, 2 h; Potency, µM, without a hit: max response, negative = inhibition, usual class: inhibitors; actives 0.93% (n = 400,000); AID 504847; active = well fitted inhibition curve with a large enough effect; inconclusive = small, poorly fitted or top-dose-only effect, or another doubt; inactive = no such curve, though single readings can be large or run the other way; note: series mostly up to about 120 µM
Target sequence (P11473 whole entry, looked up): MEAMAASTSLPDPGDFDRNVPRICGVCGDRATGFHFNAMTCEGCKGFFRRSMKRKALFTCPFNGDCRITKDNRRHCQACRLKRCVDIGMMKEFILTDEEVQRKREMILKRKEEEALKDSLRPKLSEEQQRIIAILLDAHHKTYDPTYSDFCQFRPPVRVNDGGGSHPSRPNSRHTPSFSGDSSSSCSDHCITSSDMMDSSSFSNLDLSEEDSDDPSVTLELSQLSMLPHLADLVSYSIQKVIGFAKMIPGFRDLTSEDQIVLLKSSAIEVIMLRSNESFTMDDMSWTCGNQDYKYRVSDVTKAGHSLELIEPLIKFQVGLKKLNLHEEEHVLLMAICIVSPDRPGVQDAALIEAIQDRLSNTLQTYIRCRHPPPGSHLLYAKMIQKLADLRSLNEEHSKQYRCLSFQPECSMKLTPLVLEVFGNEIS
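After 23 nl compound addition and a short centrifugation, plates sat for 2 hours at ambient temperature; polarization of fluorescence then indicated loss of VDR binding to peptide SRC2-3.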
* = called active by the depositor; ? = inconclusive; & = joins results of further samples. % is set by controls: 0 for no effect and ±100 for the full control effect; potency is the fitted concentration of half-maximal effect.

SMILES | VDR inhibitor
C=CCn1c(N)cc(=O)nc1SC(C)C(=O)Nc1cccc2ccccc12 (configuration not stated) | -2%
Cn1c(=O)c2c(=O)cc(NNC(=O)C(C)(C)C)[nH]c2n(C)c1=O | -10%
Cc1ccc(N(CCC(=O)O)S(=O)(=O)c2cccc(C(F)(F)F)c2)cc1 | -5%
COc1cccc(-c2nc(-c3ccc(NC(=O)c4cccs4)cc3)no2)c1 | -3%
COc1ccc(C(C)=O)cc1CSC(=N)N | -10%
O=C(N/N=C/c1c(O)n(Cc2ccccc2)c(=O)c2ccccc12)c1cccnc1 | -17%
CCCCNC(=O)CCc1c(C)nc2c(c(C)nn2-c2ccccc2)c1C | -6%&-1%
NC(N)=N/N=C/c1ccc(OCc2ccc(Cl)cc2)cc1 | 13%
O=C(Nc1ccc(Br)c(Br)c1)C1CCCO1 (configuration not stated) | -7%
O=C(CN1C(=O)NC2(CCCC2)C1=O)Nc1ccc(S(=O)(=O)N2CCOCC2)cc1 | 10%
CC1CCCCN1C(=O)CSc1nc2cc3c(cc2c(=O)n1Cc1ccc2c(c1)OCO2)OCO3 (configuration not stated) | 1%
O=C(CNc1cccc(Cl)c1)c1ccc(Br)cc1 | -9%
CCCn1c(CNC(=O)c2ccccc2)nc2ccccc21 | -14%
O=C(C1CCC1)N1CCc2cc(S(=O)(=O)NCc3ccco3)ccc21 | -2%
CN1CCN(c2ccccc2/C=C2/C(=O)Nc3ccccc32)CC1 | -4%
COc1ccc(C(C)(C)C)cc1NC(=O)CCc1c(C)noc1C | 1%
COC(Cc1n[nH]c(=S)n1-c1ccc(Cl)cc1)OC | -12%
C/C(=N\Nc1cccc(Cl)c1)c1ccc(-n2ccnc2)cc1 | ?
CCOc1ccc(C(=O)CCN2CCCCC2)cc1 | ?
Cc1ccc(-c2cc(C(=O)Nc3ccc(SC(F)F)cc3)no2)cc1F | -1%
CC(C)(C)CC(C)(C)c1ccc(OCC(=O)Nc2ccc(S(=O)(=O)Nc3ncccn3)cc2)cc1 | 1%
O=C(CCc1ccccc1)Nc1cccc(NC(=O)CCc2ccccc2)c1 | 10%
N/C(=N\NS(=O)(=O)c1ccccc1Cl)c1ccccn1 | -8%
COc1ccc(C2/C=C\CN(C(=O)OCC3c4ccccc4-c4ccccc43)CC(=O)N2Cc2cccc(F)c2)cc1 (configuration not stated) | ?
CC[C@H](C)[C@H]1CNC(=S)N1CC1CCN(CC2CCC(C)CC2)CC1 (some centres not stated) | -20%

Reprinted at random: five records from the list
SMILES | VDR inhibitor
O=C(Nc1ccc(Br)c(Br)c1)C1CCCO1 (configuration not stated) | -7%
O=C(C1CCC1)N1CCc2cc(S(=O)(=O)NCc3ccco3)ccc21 | -2%
COc1ccc(C2/C=C\CN(C(=O)OCC3c4ccccc4-c4ccccc43)CC(=O)N2Cc2cccc(F)c2)cc1 (configuration not stated) | ?
Cn1c(=O)c2c(=O)cc(NNC(=O)C(C)(C)C)[nH]c2n(C)c1=O | -10%
N/C(=N\NS(=O)(=O)c1ccccc1Cl)c1ccccn1 | -8%

Sorted by count of non-hydrogen atoms (low to high): some entries from above
SMILES | VDR inhibitor
N/C(=N\NS(=O)(=O)c1ccccc1Cl)c1ccccn1 | -8%
C/C(=N\Nc1cccc(Cl)c1)c1ccc(-n2ccnc2)cc1 | ?
Cc1ccc(-c2cc(C(=O)Nc3ccc(SC(F)F)cc3)no2)cc1F | -1%
COc1cccc(-c2nc(-c3ccc(NC(=O)c4cccs4)cc3)no2)c1 | -3%
O=C(N/N=C/c1c(O)n(Cc2ccccc2)c(=O)c2ccccc12)c1cccnc1 | -17%
COc1ccc(C2/C=C\CN(C(=O)OCC3c4ccccc4-c4ccccc43)CC(=O)N2Cc2cccc(F)c2)cc1 (configuration not stated) | ?

Filtered by structure: the entries above containing fluorine.
SMILES | VDR inhibitor
Cc1ccc(N(CCC(=O)O)S(=O)(=O)c2cccc(C(F)(F)F)c2)cc1 | -5%
Cc1ccc(-c2cc(C(=O)Nc3ccc(SC(F)F)cc3)no2)cc1F | -1%
COc1ccc(C2/C=C\CN(C(=O)OCC3c4ccccc4-c4ccccc43)CC(=O)N2Cc2cccc(F)c2)cc1 (configuration not stated) | ?

The results go on:
SMILES | VDR inhibitor
CCCNC(=O)N1CCCC(C(=O)c2cccc(Cl)c2)C1 (configuration not stated) | -8%
COc1ccc(NC(=O)CN2C(=O)NC3(CC(C)CC(C)(C)C3)C2=O)cc1S(=O)(=O)N1CCCCC1 (configuration not stated) | -18%
COC(=O)COc1ccc2oc(=O)cc(-c3cc4cccc(OC)c4o3)c2c1 | 2%
c1cnc2nc(CSc3ncn[nH]3)cn2c1 | -5%
Cc1nnc(SCC(=O)NC2CCS(=O)(=O)C2)n1-c1ccccc1 (configuration not stated) | -6%
Cc1nnc(SCC(=O)NC(=O)NCc2ccco2)s1 | 12%
Cc1cccc(C(=O)Nc2ccc(OCc3cc(=O)n4c5c(sc4n3)CCCC5)cc2)c1 | 3%
O=C(COc1ncnc2scc(-c3ccccc3)c12)NC1CCCc2ccccc21 (configuration not stated) | 0%
O=C(COC(=O)c1ccc2c(c1)OCO2)Nc1nc(-c2ccccc2)cs1 | 7%
Cc1nccn1CCCN1C(=O)CNC1=S | -8%
CCC(CCC(C)C1CCC2C3CC=C4CC(O)CC[C@@]4(C)C3CC[C@@]12C)C(C)C (some centres not stated) | 3%
CN1CC[C@H](CN2c3ccccc3Sc3ccccc32)C1 | -4%
CSCC[C@H](NC(=O)c1ccc2ccccc2c1)C(=O)N1CCC2(CC1)NCCc1[nH]cnc12 | -20%
COCCN(C(=O)c1ccc(N2CCCC2=O)cc1)c1c(N)n(Cc2ccccc2)c(=O)[nH]c1=O | -10%
CCc1nnc(NC(=O)c2ccc(Cl)c(S(=O)(=O)N3CCc4ccccc43)c2)s1 | 6%
CCOc1cc(C(=O)Nc2cccc(OCC(=O)N3CCOCC3)c2)cc(OCC)c1OCC | 2%
CC1CN(C(=O)N2CCC(C(=O)NCc3ccco3)CC2)c2ccccc2O1 (configuration not stated) | -7%
COc1cc2c(cc1OC)C1(CCCC1)C(N)=C2C#N | 0%
CCOC(=O)N1CCc2c(sc(NC(=O)Cc3ccccc3)c2C(=O)c2ccc(OC)cc2)C1 | -14%
CC12CCC(C[N+](C)(C)C1)C2(C)C (configuration not stated) | -1%
CCCCCn1c(SCCC(C)C)nc2c1c(=O)[nH]c(=O)n2C | -14%
Cc1ccnc(NS(=O)(=O)c2ccc(NC(=O)c3cc(=O)c4ccc(C)c(C)c4o3)cc2)n1 | 9%
COCCCNc1nc(N)c([N+](=O)[O-])c(NC2CCCCC2)n1 | -5%
O=c1c2oc3ccccc3c2n(Cc2ccccc2F)c(=O)n1Cc1ccco1 | 9%
COc1ccc(CCNc2nc3c(c(=O)n(C)c(=O)n3C)n2Cc2ccc(F)cc2)cc1OC | -12%
Continuation:
SMILES | VDR inhibitor
Clc1ccc(-n2ncc3c(NCc4cccs4)ncnc32)cc1 | 10%
CCOC1Cc2ccccc2N(C(N)=O)c2ccccc21 (configuration not stated) | -19%
O=C(Nc1c2c(nn1-c1ccc(F)cc1)CS(=O)(=O)C2)c1ccc(Br)o1 | 4%
CN(C)S(=O)(=O)c1ccc(C(=O)NCCSc2ccccc2)cc1 | 24%
O=C(COc1ccccc1)NCC(c1cccs1)S(=O)(=O)c1ccc(Cl)cc1 (configuration not stated) | 5%
Cc1cc(C(=O)NC2CCCC2)on1 | -4%
COC(=O)c1ccccc1NC(=O)C12CCC(C)(C(=O)O1)C2(C)C (configuration not stated) | 11%
CCOc1ccc(-c2onc(C(F)(F)F)c2-c2cscn2)c(O)c1 | -6%
O=C(CSc1nnnn1C1CCCCC1)NCc1ccc2c(c1)OCO2 | -5%
Cc1ccc2c(c1)C(=O)C(=O)N2Cc1ccc(Cl)cc1 | 25µM*
CCc1ccc(S(=O)(=O)c2nnn3c2nc(N2CCN(CC)CC2)c2sccc23)cc1 | -3%
COc1ccc(C(=O)Nc2nc3n(n2)C(c2ccc(F)cc2)C=C(c2ccc(Cl)cc2)N3)cc1 (configuration not stated) | 2%
COC(=O)c1cccc(Nc2nc3ccccc3nc2C)c1 | 11%
COc1cc(OC)c(S(=O)(=O)N2CCN(C(=O)c3ccco3)CC2)cc1NC(C)=O | -8%
O=C(N/N=C/c1cccc([N+](=O)[O-])c1)c1ccc(Br)cc1 | -8%
CCOC(=O)c1c(-c2ccccc2)nc2ccc(Cl)cn12 | 16%
O=S(=O)(N[C@H](CO)Cc1ccccc1)c1ccc(Br)cc1F | -17%
Nc1nc(SCC(=O)Nc2ccc(Cl)cn2)n[nH]1 | -6%
CC(C)(C)c1cc(C(=O)N/N=C/c2ccccc2O)n(-c2ccccc2)n1 | -11%
CS(=O)(=O)N1CCC(C(=O)Nc2cccc(C(F)(F)F)c2)CC1 | -13%
O/N=C\c1cccn1-c1ccc(Br)cc1 | -4%
COc1ccc(C(C)=O)cc1COc1cc(C)c(Cl)c(C)c1 | -2%
O=C(O)CCC(=O)NCCn1c(-c2ccccc2)csc1=Nc1ccccc1 | -1%&3%
O=C(N/N=C/c1ccncc1)c1ccccc1OCc1ccc(Br)cc1 | -4%
COc1ccc(S(=O)(=O)NCC2CCC(C(=O)N3CCC4(CC3)OCCO4)CC2)cc1 (configuration not stated) | 1%
(further entries)
SMILES | VDR inhibitor
CCCn1c(SCC(N)=O)nnc1-c1ccco1 | ?
CC(=O)c1ccc(-n2c(C)c(C(C)=O)c3cc(O)ccc32)cc1 | 4%
CCOC(=O)c1c(N)sn(-c2ccccc2)c1=S | 2%
CCOCCCn1c(SCC(=O)Nc2cc(C)ccc2C)nc2c(oc3ccccc32)c1=O | -18%
CCCCN(C)C(=O)CC(NS(=O)(=O)c1ccc(NC(C)=O)cc1)C(C)C (configuration not stated) | -5%
N#Cc1ccc(OCCOCCNC2CCCC2)cc1 | 0%
CCc1ccccc1NC(=O)/C(C#N)=C\c1ccc(Sc2ccccc2)o1 | 26%
CCCC(=O)NC(c1ccc(Cl)cc1Cl)c1ccc2cccnc2c1O (configuration not stated) | 7%
O=C(Cc1ccc(F)cc1)N1CCN(c2ccc([N+](=O)[O-])cc2)CC1 | -23%
CCCCN1C(C)=CC(=C2C(=O)c3ccccc3C2=O)C=C1C | -2%
O=C(N/N=C/c1ccncc1)C12CC3CC(CC(C3)C1)C2 | -15%
COC(=O)c1cc(NC(=O)Nc2cccc(Cl)c2)ccc1Cl | 18%
CCn1c(SCC(=O)NCCc2ccccc2)nnc1-c1cccs1 | 16%
Cn1c(C(=O)Nc2cccc(C(F)(F)F)c2)cc2c(=O)n3ccccc3nc21 | 13%
CC(O)CNc1nc(NCc2ccccc2)c2cnn(C)c2n1 (configuration not stated) | -10%
CCc1cccc2c(C(=O)CN3C(=O)NC4(CCc5ccccc54)C3=O)c[nH]c12 (configuration not stated) | -11%
CCOC(=O)/C(=C/c1c[nH]c2ccccc12)NC(C)=O | -13%
COc1ccc(CN2C(=O)CCC2(C)C(=O)NC2CCCCC2)c(OC)c1 (configuration not stated) | 4%
CCOC(=O)c1sc2nccc(N(C)C)c2c1N=CN(C)C | 18%
O=C(CCCn1c(=O)c2sccc2n(Cc2cc(=O)n3ccccc3n2)c1=O)NCc1ccco1 | -2%
C#CCn1c(=NC(=O)c2ccc(Br)s2)sc2cccc(OC)c21 | -2%
Cc1nn(-c2ccc(C(F)(F)F)cn2)c(C)c1Oc1ccccc1O | -4%
c1ccc(-c2cc(-c3ccc(N4CCOCC4)cc3)nc3ccccc23)cc1 | -17%
COc1cc(/C=C/CN2CCN(CCC(C)C)C(CCO)C2)ccc1O (configuration not stated) | -8%
Fc1ccc(NC(=S)NCc2ccccc2Cl)cc1 | -15%
COc1cccc(OC)c1C(=O)Nc1nc2ccc([N+](=O)[O-])cc2s1 | 11%
COc1ccc(CCNC(=O)c2cc([N+](=O)[O-])ccc2N2CCOCC2)cc1 | 14%
CCOC(=O)N1CCc2c(sc3c2c(=O)n(-c2ccc(CC)cc2)c(=O)n3Cc2cccc(Cl)c2)C1 | -1%

3 entries from above in another layout:
CN1CC[C@H](CN2c3ccccc3Sc3ccccc32)C1
  VDR inhibitor = -4%
CSCC[C@H](NC(=O)c1ccc2ccccc2c1)C(=O)N1CCC2(CC1)NCCc1[nH]cnc12
  VDR inhibitor = -20%
COCCN(C(=O)c1ccc(N2CCCC2=O)cc1)c1c(N)n(Cc2ccccc2)c(=O)[nH]c1=O
  VDR inhibitor = -10%

These rows are one share of the data, so the mix of outcomes need not match the whole.
